# High-throughput results deposited in PubChem by National Center for Advancing Translational Sciences (NCATS).
# NPR1 antag = blocks ANP-stimulated signaling of human Npr1 receptor | P16066 | 1.6% of 76,000 active | HEK293 hNpr1 GloSensor cGMP, ANP-stimulated luminescence | Potency, µM (titrated, usually from 46.3 µM), without a hit: top-dose activity change, negative = inhibition, most hits filed as inhibitors; active = well fitted inhibition curve with a large enough effect; inconclusive = small, poorly fitted or top-dose-only effect; inactive = no such curve, though single readings can be large or run the other way;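 also: nearly all actives have a fitted effect of over 60% in size; nearly all hits also lower the signal before the agonist is added; a reference antagonist and vehicle were the controls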
# Target sequence (P16066 whole entry, looked up): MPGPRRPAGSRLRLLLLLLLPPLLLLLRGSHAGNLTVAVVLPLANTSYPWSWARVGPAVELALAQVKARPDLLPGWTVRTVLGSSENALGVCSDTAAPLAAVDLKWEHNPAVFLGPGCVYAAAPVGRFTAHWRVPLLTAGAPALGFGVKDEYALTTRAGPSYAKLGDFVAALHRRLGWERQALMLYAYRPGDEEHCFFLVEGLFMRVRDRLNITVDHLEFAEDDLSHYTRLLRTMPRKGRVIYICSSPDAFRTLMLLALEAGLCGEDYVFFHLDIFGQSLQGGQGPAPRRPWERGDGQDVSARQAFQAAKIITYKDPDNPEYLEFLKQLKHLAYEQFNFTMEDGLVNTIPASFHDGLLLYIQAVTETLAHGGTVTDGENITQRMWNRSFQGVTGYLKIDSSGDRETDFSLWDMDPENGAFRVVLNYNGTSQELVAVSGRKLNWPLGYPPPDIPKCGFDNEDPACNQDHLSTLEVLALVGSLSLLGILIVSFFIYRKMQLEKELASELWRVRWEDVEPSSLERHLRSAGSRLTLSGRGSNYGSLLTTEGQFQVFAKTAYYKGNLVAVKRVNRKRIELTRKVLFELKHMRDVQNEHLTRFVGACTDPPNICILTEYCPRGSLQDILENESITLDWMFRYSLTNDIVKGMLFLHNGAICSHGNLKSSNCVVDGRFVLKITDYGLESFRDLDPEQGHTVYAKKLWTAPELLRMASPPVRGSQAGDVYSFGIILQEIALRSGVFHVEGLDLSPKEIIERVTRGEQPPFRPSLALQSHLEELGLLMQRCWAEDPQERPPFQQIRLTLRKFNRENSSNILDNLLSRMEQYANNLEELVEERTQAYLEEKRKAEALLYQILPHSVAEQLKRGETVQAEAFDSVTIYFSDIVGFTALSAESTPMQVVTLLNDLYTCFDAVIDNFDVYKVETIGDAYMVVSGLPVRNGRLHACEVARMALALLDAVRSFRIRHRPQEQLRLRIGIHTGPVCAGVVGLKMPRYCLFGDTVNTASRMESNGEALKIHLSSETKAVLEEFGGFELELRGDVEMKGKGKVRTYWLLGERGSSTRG
#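 HEK293 cells stably expressing human Npr1 and cGMP GloSensor pGS-40F, loaded 2 h with 2% GloSensor reagent, given compound 30 min at room temperature. Luminescence read before and 20 min after 0.1 nM hNppA.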
# Numbers without * were called inactive; ? = inconclusive; [ ] = remark or other dose. % is scaled to controls: 0 for no effect and ±100 for the full control effect; potency is read from the fitted curve at half-maximal effect.
# The first 2 records (preview)
Structure,NPR1 antag
OCCNc1cc(N2CC[C@@]3(O)CCNC[C@H]3C2)ncn1,1%
Cc1ccccc1-c1ccc2n(c1=O)C[C@H]1C[C@@H]2CN(C(=O)NC2CCCCC2)C1,2%[70.6 µM]

# All compounds of this part, from the start:
Structure,NPR1 antag
OCCNc1cc(N2CC[C@@]3(O)CCNC[C@H]3C2)ncn1,1%
Cc1ccccc1-c1ccc2n(c1=O)C[C@H]1C[C@@H]2CN(C(=O)NC2CCCCC2)C1,2%[70.6 µM]
O=C(COc1ccc(F)cc1)N1[C@H]2CC[C@@H]1c1cnc(-c3ccc(F)cc3)nc1C2,?
CC1CCN(C[C@H]2CN3CC[C@H]2C[C@@H]3CNS(C)(=O)=O)CC1,-3%[70.6 µM]
CCCS(=O)(=O)N1C[C@@H]2C[C@H](C1)c1ccc(-c3ccccc3C)c(=O)n1C2,-4%[70.6 µM]
O=C(NCc1ccc(F)cc1)[C@H]1CN2CCC1C[C@@H]2Cn1cc(CSc2ccccc2)nn1 (stereo partly specified),-6%
Cc1ncc2c(n1)C[C@@H]1CC[C@H]2N1C(=O)COc1ccc(F)cc1,12%
CN1C(=O)[C@H]2CN(Cc3ccco3)C[C@H]2C1=O,5%
COCCNC(=O)N1CCC2(C1)C(=O)N(C)c1ccc(OC)cc12 (stereo unspecified),-2%
CC[C@H]1CN2CC[C@H]1C[C@@H]2CNS(=O)(=O)c1cccc2cccnc12,-6%[70.6 µM]

# 5 compounds out of the list, arranged by length of the SMILES, ascending.
Structure,NPR1 antag
OCCNc1cc(N2CC[C@@]3(O)CCNC[C@H]3C2)ncn1,1%
COCCNC(=O)N1CCC2(C1)C(=O)N(C)c1ccc(OC)cc12 (stereo unspecified),-2%
CC1CCN(C[C@H]2CN3CC[C@H]2C[C@@H]3CNS(C)(=O)=O)CC1,-3%[70.6 µM]
CCCS(=O)(=O)N1C[C@@H]2C[C@H](C1)c1ccc(-c3ccccc3C)c(=O)n1C2,-4%[70.6 µM]
O=C(NCc1ccc(F)cc1)[C@H]1CN2CCC1C[C@@H]2Cn1cc(CSc2ccccc2)nn1 (stereo partly specified),-6%

# Remaining list, next part.
Structure,NPR1 antag
Cn1nc(-c2ccc(F)cc2)cc1[C@H]1CN2CC[C@H]1C[C@@H]2CNC(=O)NCc1ccccc1,-16%
O=C(c1cccs1)C1CCCN(Cc2nc(-c3ccccn3)no2)C1 (stereo unspecified),6%
CC(C)NC(=O)N1CCC2(CC1)c1nccn1-c1ccccc1CN2C,3%
Cn1nc(-c2ccc(F)cc2)cc1[C@H]1CN2CC[C@H]1C[C@@H]2CNS(=O)(=O)c1cccs1,-5%
CCCCc1cn(C[C@H]2C[C@@H]3CCN2C[C@@H]3C(=O)NCc2ccc(F)cc2)nn1,3%[70.6 µM]
CCc1nnc2ccc(N3CCN(CC)CC3)nn12,2%
CC(C)CC(=O)N1CCC2(CC1)c1nccn1-c1ccccc1CN2C,7%
O=C1NC2(CCCN(Cc3ccncc3)C2)Oc2ccccc21 (stereo unspecified),-4%[70.6 µM]
COc1cc2c(cc1OCC1CC1)NC(=O)C21CCN(c2nccc(C(F)(F)F)n2)CC1,-14%
COc1cccc([C@@H]2CCN(Cc3[nH]c4ccccc4c3C)C[C@H]2O)c1,2%

# Single values from above:
# Entry of CCc1nnc2ccc(N3CCN(CC)CC3)nn12 in NPR1 antag: 2%
# Entry of Cn1nc(-c2ccc(F)cc2)cc1[C@H]1CN2CC[C@H]1C[C@@H]2CNC(=O)NCc1ccccc1 in NPR1 antag: -16%
# Entry of O=C1NC2(CCCN(Cc3ccncc3)C2)Oc2ccccc21 (stereo unspecified) in NPR1 antag: -4%[70.6 µM]

# (next part)
Structure,NPR1 antag
CCC(c1cccs1)N1C(=O)[C@H]2CNC[C@H]2C1=O (stereo partly specified),2%
CCC(CC)C(=O)NC[C@H]1C[C@@H]2CCN1C[C@@H]2c1cc(-c2ccco2)nc(C)n1,-1%[70.6 µM]
Nc1ncccc1CN1CC[C@H]2NCCC[C@]2(C(=O)O)C1,6%
COc1ccc(-c2cc([C@H]3CN4CC[C@H]3C[C@@H]4CNS(=O)(=O)c3ccc(NC(C)=O)cc3)n(C)n2)cc1,-2%
Cc1nc(-c2ccccc2)cc([C@H]2CN3CC[C@H]2C[C@@H]3CNC(=O)CCCC(=O)O)n1,-4%[70.6 µM]
Nc1cccc(-c2cn(C[C@H]3CC4CCN3C[C@@H]4C(=O)NCc3ccc(F)cc3)nn2)c1 (stereo partly specified),-1%[70.6 µM]
CCN1C(=O)CCN(Cc2cccnc2)CC12CCOCC2,0%
COc1ccccc1N1CCN(C[C@H]2CN3CC[C@H]2C[C@@H]3CNC(=O)Nc2ccccc2)CC1,5%
CCCNC(=O)OC[C@H]1C[C@@H]2CCN1C[C@@H]2c1cc(-c2ccc(OC)cc2)nn1C,7%[70.6 µM]
CN1C(=O)[C@@H]2C[C@@H](O)CN2C2(CN(Cc3cccnc3)C2)C1=O,0%[70.6 µM]

Structure,NPR1 antag
Cc1cccc([C@H]2C[C@@H](O)[C@@H](O)[C@@H]2NCC(C)C)c1,-1%[70.6 µM]
COc1ccc(-c2cc([C@H]3CN4CC[C@H]3C[C@@H]4CNC(=O)c3ccco3)n(C)n2)cc1,-15%[70.6 µM]
CN1C(=O)CO[C@H]2CN(C3CCC3)C[C@H]21,-2%[122 µM]
COc1ccc(CNC(=O)N2[C@H]3CC[C@@H]2c2cnc(-c4ccccc4)nc2C3)cc1,13µM*
O=C(CCc1nc2ccccc2s1)N1[C@H]2CC[C@@H]1c1cnc(-c3ccccc3)nc1C2,-22%
O=C(c1ccncc1)N1CC2CCC(C1)N2CC1CCCC1,25%[70.6 µM]
CC[C@H]1CN2CC[C@H]1C[C@@H]2CNC(=O)Nc1cc(OC)cc(OC)c1,2%[70.6 µM]
CC[C@H]1CN2CC[C@H]1C[C@@H]2CNC(=O)Nc1ccccc1,3%[70.6 µM]
COc1ccc(C(=O)N2[C@H]3CC[C@@H]2c2cnc(-c4ccc(F)cc4)nc2C3)cc1OC,-29%
Cc1cnc(C2CC2)n1C1CCCNC1 (stereo unspecified),0%

Structure,NPR1 antag
c1nc(N2CCOCC2)ncc1CN1CC[C@H]2CNC[C@H]21,6%
COc1ccccc1CC(=O)N1CCN(C2CCN(C)C2=O)CC1 (stereo unspecified),2%
CN1CCN(C(=O)Cc2c[nH]c3ncc(-c4ccc([S+](C)(=O)[O-])cc4)cc23)CC1,2%[70.6 µM]
Cc1ccc(C(=O)NC[C@H]2C[C@@H]3CCN2C[C@@H]3c2cc(-c3ccco3)nc(C)n2)cc1,-1%[70.6 µM]
Cc1ncc2c(n1)C[C@@H]1CC[C@H]2N1C(=O)c1sccc1C,-4%
CC1CCN(C[C@H]2CN3CC[C@H]2C[C@@H]3CNC(=O)c2ccc(N(C)C)cc2)CC1,-1%[70.6 µM]
CC(C)NC(=O)N1C[C@@H]2C[C@H](C1)c1ccc(C3CCCCC3)c(=O)n1C2,1%[70.6 µM]
Cc1nc(-c2ccc(N(C)C)cc2)cc([C@H]2CN3CC[C@H]2C[C@@H]3CNC(=O)N2CCOCC2)n1,0%
O=C(c1cccs1)C1CCCN(Cc2cc3n(n2)CCNC3)C1 (stereo unspecified),4%
Cc1ncc2c(n1)C[C@@H]1CC[C@H]2N1C(=O)c1ccc(C(C)C)cc1,12%

Structure,NPR1 antag
COc1cc2c(cc1OCC1CC1)NC(=O)C21CCN(C(=O)c2ccccc2)CC1,4%[70.6 µM]
CCNC(=O)NC[C@H]1C[C@@H]2CCN1C[C@@H]2c1cc(-c2ccc(OC)c(OC)c2)nc(C)n1,4%
C=C[C@H]1CN2CC[C@H]1C[C@@H]2CNS(=O)(=O)c1cccc2cccnc12,5%[70.6 µM]
COc1ccc(-c2cc([C@H]3CN4CC[C@H]3C[C@@H]4CNC(=O)c3ccc(N(C)C)cc3)n(C)n2)cc1,1%
CC(C)CN1Cc2ccccc2-n2ccnc2C12CCN(C(=O)c1ccn[nH]1)CC2,-15%
O=c1c(-c2cccs2)ccc2n1C[C@H]1C[C@@H]2CN(C2CCOCC2)C1,-1%[70.6 µM]
COc1ccccc1-c1cc([C@H]2CN3CC[C@H]2C[C@@H]3CNC(C)=O)n(C)n1,-2%[70.6 µM]
COCC(=O)N1CCC2(CC1)C(=O)Nc1cc(Oc3ccccc3)c(OC)cc12,-5%[70.6 µM]
COc1cc2c(cc1OCc1ccccc1)NC(=O)C21CCN(Cc2ccccc2)CC1,-25%[70.6 µM]
O=S(=O)(NC[C@H]1C[C@@H]2CCN1C[C@@H]2CN1CCN(c2ccccc2)CC1)c1ccccc1,-2%

Structure,NPR1 antag
OCC1CN(c2ncccn2)CC12CCNCC2 (stereo unspecified),2%
O=C(c1cn2c(n1)CNCC2)N1C[C@H](c2ccccc2)[C@@H]2[C@H]1C1CCN2CC1,1%
Cn1cccc1C(=O)C(=O)N1C[C@H](c2cc(F)cc(F)c2)[C@@H]2[C@H]1C1CCN2CC1,1%
CCCCc1cn(C[C@H]2C[C@@H]3CCN2C[C@@H]3C(=O)Nc2ccccc2)nn1,-1%[70.6 µM]
O=C1N(Cc2ccccn2)C[C@H]2CN(Cc3cccnc3)CCN12,2%[70.6 µM]
CN1Cc2ccccc2-n2ccnc2C12CCN(C(=O)c1ccccn1)CC2,2%
CN(C)Cc1cn(C[C@H]2C[C@@H]3CCN2C[C@@H]3C(=O)Nc2nccs2)nn1,1%[70.6 µM]
COc1cc2c(cc1OCc1ccccc1)NC(=O)C21CCN(C(=O)C(C)C)CC1,-9%[70.6 µM]
Cc1noc(C)c1CC(=O)N1[C@H]2CC[C@@H]1c1cnc(-c3ccccc3)nc1C2,2%
CN(C[C@H]1CN2CC[C@H]1C[C@@H]2CNS(=O)(=O)c1cccs1)c1ccccc1,-6%[70.6 µM]

Structure,NPR1 antag
CSCC(=O)N1C[C@@H]2C[C@H](C1)c1c(-c3ccc(NC(C)=O)cc3)ccc(=O)n1C2,1%[70.6 µM]
O=C(c1ccn[nH]1)N1[C@H]2CC[C@@H]1c1cnc(-c3ccccc3)nc1C2,-2%
O=C(COc1ccccc1)N1[C@H]2CC[C@@H]1c1cnc(-c3ccccc3)nc1C2,-7%
O=C(Nc1nccs1)[C@H]1CN2CCC1C[C@@H]2Cn1cc(CCO)nn1 (stereo partly specified),1%[70.6 µM]
Cc1cccc(CC(=O)N2[C@H]3CC[C@@H]2c2cnc(C)nc2C3)c1,9%
O=S(=O)(NC[C@H]1C[C@@H]2CCN1C[C@@H]2CN1CCc2ccccc21)c1ccc(Cl)cc1,4%
O=C1CO[C@H]2CN(Cc3ccccc3)C[C@H]2N1Cc1cccnc1,2%[70.6 µM]
C#C[C@H]1CN2CC[C@H]1C[C@@H]2CNCc1cccc(Cl)c1,-5%[70.6 µM]
COCc1cn(C[C@H]2CC3CCN2C[C@@H]3C(=O)NC2CCCCC2)nn1 (stereo partly specified),4%[70.6 µM]
O=C(O)CSCC(=O)N1C[C@@H]2C[C@H](C1)c1ccc(-c3cccc(C(F)(F)F)c3)c(=O)n1C2,2%

Structure,NPR1 antag
COc1ccc(-c2cc3c(cn2)CN(C)CCN3)cc1OC,-11%[70.6 µM]
COCCNC(=O)[C@H]1CN2CCC1C[C@@H]2Cn1cc(-c2ccc(OC)cc2)nn1 (stereo partly specified),-2%[70.6 µM]
C=C[C@H]1CN2CC[C@H]1C[C@@H]2CNC(=O)c1ccc(-c2ccccc2)cc1,-1%[70.6 µM]
COc1cc2c(cc1OCC1CC1)NC(=O)C21CCN(Cc2ccccc2O)CC1,-17%[70.6 µM]
O=C1Nc2ccccc2CC12CCN2Cc1cccnc1 (stereo unspecified),-18%
OCC1CN(C2CCC2)CC12CCN(Cc1cccnc1)CC2 (stereo unspecified),-2%
COc1cc2c(cc1OCc1ccccc1)NC(=O)C21CCN(Cc2ccncc2)CC1,?
O=c1ccc(-c2ccccc2)c2n1C[C@H]1C[C@@H]2CN(Cc2ccc(CO)o2)C1,0%[70.6 µM]
CN(Cc1ccccc1)C[C@H]1CN2CC[C@H]1C[C@@H]2CNC(=S)Nc1ccc(N(C)C)cc1,1%
Cc1cccc(NC(=O)N2[C@H]3CC[C@@H]2c2cnc(C)nc2C3)c1,2%

Structure,NPR1 antag
CC[C@H]1CN2CC[C@H]1C[C@@H]2CNC(=O)N1CCOCC1,-1%[70.6 µM]
COCC(=O)NC[C@H]1C[C@@H]2CCN1C[C@@H]2CN1CCc2ccccc2C1,10%[70.6 µM]
N#Cc1cccc(-c2ccc(=O)n3c2[C@@H]2C[C@@H](CN(C(=O)NC4CCCCC4)C2)C3)c1,7%[70.6 µM]
COc1ccc2c(c1)C1(CCNC1)C(=O)N2 (stereo unspecified),4%
COc1cc2c(cc1OC1CCCC1)NC(=O)C21CCN(C(=O)c2ccnn2C)CC1,4%[70.6 µM]
COc1cc2c(cc1OCc1ccccc1)NC(=O)C21CCN(c2cnccn2)CC1,-27%[70.6 µM]
Cc1cccc(OCC(=O)N2[C@H]3CC[C@@H]2c2cnc(-c4ccccc4)nc2C3)c1,-2%
COCCN1C(=O)CS(=O)(=O)C12CCNCC2,3%
C=C[C@H]1CN2CC[C@H]1C[C@@H]2CNS(C)(=O)=O,-1%[70.6 µM]
COc1ccc(C(=O)N2[C@H]3CC[C@@H]2c2cnc(C)nc2C3)cn1,-1%
C#C[C@H]1CN2CC[C@H]1C[C@@H]2CNC(=O)c1ccc(N(C)C)cc1,2%[70.6 µM]
CC(=O)c1cccc(NC(=O)OC[C@H]2C[C@@H]3CCN2C[C@@H]3c2cc(C3CCCC3)nc(-c3ccncc3)n2)c1,?

# These rows are one share of the data; count on the stated rates, not on these rows.
